High-throughput results (PubChem BioAssay)
AID923: qHTS Assay for Allosteric/Competitive Inhibitors of Caspase-1: Spectroscopic Profiling in AFC Spectral Region; compound fluorescence, AFC spectral region (405/520 nm); almost no hit is shown here; Potency, µM (highest dose often 57.5 µM), without a hit: top-dose fluorescence increase, most hits filed as activators; 1.1% of 75,000 active; AID 923, 2007; active means well fitted activation curve with a large enough effect; inconclusive means small, poorly fitted or top-dose-only effect;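 further: potency means the concentration at half of the fitted maximal effect; 0% is about no effect; scaled to a free AFC standard on each plate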
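Titrations up to 57 uM read every 20 sec for 3 min (405/520 nm) with 50 nM caspase 1 and 5 uM Ac-WEHD-AFC, pH 7.5 HEPES buffer. Fluorescence-vs-time intercept gave baseline, scaled against on-plate AFC standard.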
TSHR ag: qHTS Assay for Agonists of the Thyroid Stimulating Hormone Receptor. Thyrotropin receptor (Homo sapiens), P16473. HEK293-CNG-TSHR cells (CNG channel as cAMP sensor), membrane potential dye, cAMP. Potency, µM (doses to about 57.1 µM), inactives show at the top dose activation, hits mostly activators. 0.48% of 73,000 active. AID 926, 2007; active = well fitted activation curve of enough size with the parental cells flat; inconclusive = any curve in the parental cells; inactive = parental cells flat and receptor cells flat or falling; further: potency means the concentration at half of the fitted maximal effect; % of control where 0% means no effect; weak receptor curves with flat parental cells got no call and are not listed
Target sequence (P16473 whole entry, looked up): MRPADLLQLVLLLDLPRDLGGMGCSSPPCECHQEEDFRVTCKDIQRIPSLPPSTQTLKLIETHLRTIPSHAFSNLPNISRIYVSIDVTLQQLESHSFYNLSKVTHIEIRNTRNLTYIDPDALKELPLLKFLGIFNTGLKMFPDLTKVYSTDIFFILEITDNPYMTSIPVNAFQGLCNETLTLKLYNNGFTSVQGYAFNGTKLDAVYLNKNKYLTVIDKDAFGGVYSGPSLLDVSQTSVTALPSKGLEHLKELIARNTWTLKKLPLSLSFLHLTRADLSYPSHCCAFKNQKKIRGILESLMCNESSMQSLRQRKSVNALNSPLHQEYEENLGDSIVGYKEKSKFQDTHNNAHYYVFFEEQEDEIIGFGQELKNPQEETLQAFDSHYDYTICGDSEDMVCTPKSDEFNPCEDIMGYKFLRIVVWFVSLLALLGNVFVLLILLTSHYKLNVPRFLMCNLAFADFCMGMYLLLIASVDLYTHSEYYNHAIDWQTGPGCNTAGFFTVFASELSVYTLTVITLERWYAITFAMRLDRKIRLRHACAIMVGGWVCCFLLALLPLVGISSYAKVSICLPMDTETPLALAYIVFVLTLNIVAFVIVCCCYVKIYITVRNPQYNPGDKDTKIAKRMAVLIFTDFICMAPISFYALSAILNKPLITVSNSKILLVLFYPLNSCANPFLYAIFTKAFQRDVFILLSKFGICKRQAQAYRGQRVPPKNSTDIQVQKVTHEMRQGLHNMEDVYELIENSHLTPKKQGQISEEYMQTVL
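cAMP rise detected as CNG-channel membrane depolarization by fluorescent dye (emission 590 nm), 30 min after compound, following 60 min dye loading containing 100 uM RO 20-1724 at room temperature. Cells: TSHR/CNG HEK 293, with parental CNG HEK 293 as control.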
Resorufin autofl: qHTS Assay for Spectroscopic Profiling in Resorufin Spectral Region; Compound fluorescence, resorufin region 547/598 nm, buffer; hits give high values; max dye-equivalent concentration, M; 0.04% of 59,000 active; active = above 10 nM dye equivalent; inconclusive = 1 to 10 nM; inactive = 1 nM or less; a few of its hits are not listed in these tables; further: highest value over a series up to 38 µM
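Dye-equivalent concentration values derive from comparing each well's 547/598 nm fluorescence against resorufin standards included on every plate. Incubation was 15 min at room temperature in 100 mM Tris, pH 8.0.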
A488 fluor: qHTS Assay for Spectroscopic Profiling in A488 Spectral Region; compound autofluorescence, A488 spectral region, dye equivalency; hits give high values; 0.1% of 59,000 active; max dye equivalency, M; active = above 10 nM dye equivalent; inconclusive = 1 to 10 nM; inactive = 1 nM or less; about half of its hits are not listed in these tables;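 further: highest value over a series up to 38 µM; compound alone in buffer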
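Compounds pin-transferred into 100 mM Tris buffer, pH 8.0, incubated 15 min at room temperature, then imaged with 480 nm excitation/540 nm emission filters. Fluorescence converted to Alexa 488 dye-equivalent concentration via an on-plate six-point A488 standard curve.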
A647 fluor: qHTS Assay for Spectroscopic Profiling in A647 Spectral Region. max dye-equivalent concentration, M. AID 592, 2007. 59,000 tested, under 10 active. Compound fluorescence, A647 channel (570/671 nm), Tris buffer; active means above 1 µM dye equivalent; inconclusive means 0.1 to 1 µM; inactive means 0.1 µM or less;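 further: values scaled relative to a standard on each plate; highest value over a series up to 38 µM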
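Spectral profiling of library compounds in pH 8.0 Tris: 15 min room-temperature incubation, single ex/em pair (570/671 nm), response normalized to Alexa 647 equivalents.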
An asterisk follows results filed as active; i = inactive; ? = inconclusive; . = not tested or not shown; [ ] = remark or other dose. This is a subset, so the mix of outcomes need not match the whole.

The first 4 entries as a preview:
SMILES	AID923	TSHR ag	Resorufin autofl	A488 fluor	A647 fluor
Cc1ccc(-n2c(=O)c3sccc3n(CC(=O)NCc3ccco3)c2=O)cc1	-0.7%	-1%	i	i	1e-09
CCCNC(=O)OC[C@H]1O[C@@H](CCO/N=C2/[C@H]3O[C@@H]3[C@@H](O)[C@H]3[C@H]2CCn2c(=O)n(-c4ccccc4)c(=O)n23)C=C[C@@H]1Oc1ccc(OC)cc1	-2.8%[11.5 µM]	0%[11.4 µM]	.	.	.
CCCCOc1ccc(OC(=O)c2cccnc2)cc1	-0.2%	?	i	i	1e-09
COc1cccc2c(=O)n(CC(=O)Nc3cccc(F)c3)ccc12	1.8%	-10%	.	.	.

This part in full, from the first entry:
SMILES	AID923	TSHR ag	Resorufin autofl	A488 fluor	A647 fluor
Cc1ccc(-n2c(=O)c3sccc3n(CC(=O)NCc3ccco3)c2=O)cc1	-0.7%	-1%	i	i	1e-09
CCCNC(=O)OC[C@H]1O[C@@H](CCO/N=C2/[C@H]3O[C@@H]3[C@@H](O)[C@H]3[C@H]2CCn2c(=O)n(-c4ccccc4)c(=O)n23)C=C[C@@H]1Oc1ccc(OC)cc1	-2.8%[11.5 µM]	0%[11.4 µM]	.	.	.
CCCCOc1ccc(OC(=O)c2cccnc2)cc1	-0.2%	?	i	i	1e-09
COc1cccc2c(=O)n(CC(=O)Nc3cccc(F)c3)ccc12	1.8%	-10%	.	.	.
CCN1CCc2nc(SCC(=O)Nc3ccc(OC)cc3)c(C#N)cc2C1	18%	-12%	i	i	1e-09
COc1ccc(Cc2noc(-c3ccc(OC)c(OC)c3)n2)cc1OC	0.1%	13%	i	i	3.6e-09
O=C(O)c1cccc(NC(=O)c2ccccc2)c1	2.4%	?	.	.	.
CN1CCN(Cc2nc3c(c(=O)n(C)c(=O)n3C)n2Cc2cccc3ccccc23)CC1	0.8%	5%	i	i	1.2e-08
COC(=O)c1ccc(OC)c(CSc2nnc(COc3ccccc3)o2)c1	5.8%	?	i	i	1e-09
CC(=O)Nc1nc(NC(C)=O)c2[nH]c(CO)nc2n1	0.7%[11.5 µM]	-6%[11.4 µM]	i	i	6e-09
CCOc1ncccc1C(=O)OCCN1C(=O)c2ccccc2C1=O	0.0%	5%	i	i	8.1e-09
Cn1c(=O)c2c(nc(SCc3nn[nH]n3)n2Cc2ccccc2F)n(C)c1=O	-2.8%	5%	i	i	4.2e-09
CCNC(=O)c1cc2c(=O)n3cccc(C)c3nc2n(CCc2ccccc2)c1=N	.	.	i	i	1.2e-09
C[C@@H]1[C@H]2CC[C@@H]3[C@@H]4CC=C5C[C@@H](N(C)C)CC[C@]5(C)[C@@H]4CC[C@@]32CN1C	-7.3%[25.7 µM]	0%[25.6 µM]	i	i	2.9e-08
Nc1ncnc2c1ncn2[C@@H]1CCCO1	-3.1%	-15%	i	i	1e-09
COc1cccc(-n2c(SC3CCOC3=O)nc3ccccc3c2=O)c1 (stereo not drawn)	-0.8%	0%[11.4 µM]	i	i	1e-09
CC(=O)Nc1ccc(S(=O)(=O)NC(CC(=O)N(C)Cc2ccccc2)C(C)C)cc1 (stereo not drawn)	4.7%	11%	.	.	.
CCOC(=O)Cn1c(=O)c2c(nc(N3CCCCC3)n2Cc2ccccc2)n(C)c1=O	-2.0%	?	i	i	2.5e-08
O=C(O)CSCCc1ccccc1	-0.2%[11.5 µM]	1%[11.4 µM]	i	i	1e-09
CCOC(=O)CCN1CCN(C(=O)c2ccc(-n3c(=O)c(=O)[nH]c4ccccc43)cc2)CC1	1.7%	-1%	.	.	.
CC12CCC(C(=O)N3CCc4ccccc43)(CC1=O)C2(C)C (stereo not drawn)	-0.8%	7%	i	i	2.5e-08
COc1ccccc1NC(=O)CSc1nnc(Cc2cccn2C)n1-c1ccc(F)cc1	1.2%	10%	.	.	.
O=C1CCC(c2ccccc2)(c2ccccc2)CC1	5.8%[11.5 µM]	23%[11.4 µM]	i	i	3.6e-08
Cc1noc(C)c1C(=O)N1CCC2(CC1)CN(c1cccc(-c3ccccc3)c1)C2	1.3%	5%	i	i	1e-09
COc1ccc(N(Cc2cc3cc(OC)ccc3[nH]c2=O)C(=O)C2CCCO2)cc1 (stereo not drawn)	3.4%	1%	i	i	1e-09
Cc1ccc(-c2nn(CC(=O)Nc3ccc4c(c3)nc3n4CCOC3)c(=O)c3ccccc23)cc1	0.8%	1%	i	i	3.7e-08
COc1cccc(-c2nccc(NC3CCNCC3)n2)c1	-0.1%	2%	i	i	1e-09
COCC(=O)NCc1nc2ccccc2n1Cc1ccccc1F	0.0%	-2%[11.4 µM]	i	i	1.6e-09
N#Cc1c(-n2cccc2/C=N/O)sc2c1CCCC2	0.8%	?	i	i	1e-09
CCCn1nc2ccccc2c1P(=N)(N1CCOCC1)N1CCOCC1	0.1%	?	i	i	2.5e-08
NC(=O)c1ccc(NC(=O)CCCc2nc(-c3ccccc3Cl)no2)cc1	3.2%	1%[11.4 µM]	i	i	5.4e-09
CCCCNc1nc(N(C)c2ccccc2)nc(-n2ccnc2)n1	-0.8%	?	i	i	3.2e-09
COc1ccc2nc(Nc3nc(C)c(CCC(C)C)c(=O)[nH]3)nc(C)c2c1	1.1%	9%	i	i	3.1e-08
CCc1nc(NCc2ccccn2)c2oc3ccccc3c2n1	-2.6%	?	i	i	8.7e-09
O=C(NCc1ccc2c(c1)OCO2)C1CCCN1C(=O)Nc1cccc(Cl)c1 (stereo not drawn)	-0.3%	3%	i	i	2.4e-08
CC1CCN(C(=O)CSc2nc3cccnc3n2C)CC1	-0.8%	-4%[11.4 µM]	i	i	1.4e-09
CCOC(=O)C1CCCN(c2ncnc3c2cnn3-c2ccc(OC)cc2)C1 (stereo not drawn)	-0.3%	8%	i	i	6.5e-09
N#Cc1nc(COc2ccccc2)oc1NCCN1CCOCC1	0.6%	?	i	i	3.9e-09
O=C(Cn1c(-c2ccccc2)noc1=O)Nc1ccc(S(=O)(=O)N2CCOCC2)cc1	-0.7%	-11%	i	i	1.9e-08
Cc1ccc(S(=O)(=O)NC(=O)Nc2c(C)n(C)n(-c3ccccc3)c2=O)cc1	-1.4%	4%	i	i	1e-09
COc1ccc2c(c1)[nH]c1c(=O)n(CCN3CCCC3)cnc12	0.7%	-3%	i	i	3.5e-08
CCCCc1ccc(-c2ccc(C)cc2O)nc1	3.4%	-7%	i	i	4.7e-09
CCOCCCNC(=O)CS(=O)(=O)Cc1nc(-c2cccc(OC)c2)oc1C	1.7%	1%	i	i	1.3e-09
Cc1ccc(NC(=O)N2CCC(C(N)=O)CC2)cc1	-0.1%	?	i	i	1e-09
CCOC(=O)C1=C(C)NC(=O)C(C(N)=O)C1c1ccccc1 (stereo not drawn)	1.2%	-1%	i	i	1.5e-08
CC1(C)NC(=O)N(CCCOc2ccc3c(c2)CCC3)C1=O	-2.8%	2%	i	i	1e-09
Oc1ccc(N2CCN(C(c3cccnc3)c3nnnn3Cc3ccccc3)CC2)cc1 (stereo not drawn)	-2.0%	1%	i	i	2.2e-08
CCOC(=O)C1=C(C)NC(=O)NC1c1ccc(OC)c(CN2CCOCC2)c1 (stereo not drawn)	0.1%	4%	i	i	1.2e-09
CC(c1ccco1)N(C(=O)Nc1ccc(Cl)cc1)c1ccccn1 (stereo not drawn)	0.0%	15%	i	i	2.3e-08
O=C(Cn1nnc(-c2ccccc2)n1)NCc1cccs1	-2.3%	-3%	i	i	3.7e-09
CCOc1ccc(N2C(=O)CC(N3CCN(C(=O)c4ccco4)CC3)C2=O)cc1 (stereo not drawn)	-0.1%	5%	.	.	.
Cc1cc(Nc2ccc(C)c(C)c2)n2nc(C)nc2n1	-6.9%	18%	.	.	.
CC(=O)N1CCc2cc(S(=O)(=O)NCCCN3CCN(Cc4ccccc4)CC3)ccc21	-1.1%	4%	i	i	2.3e-08
O=C(CN1C(=O)c2ccccc2S1(=O)=O)NC1CC2CCC1C2 (stereo not drawn)	1.1%	-2%	.	.	.
Cc1ccc(-c2nnc(Nc3ccccc3)o2)cc1	1.1%	5%	i	i	1e-09
COc1ccc(S(=O)(=O)Nc2ccc3c(c2)COC3=O)cc1OC	1.6%	9%[11.4 µM]	i	i	2.8e-08
COc1c2ccoc2nc2c(OC)c(OCC(O)C(C)(C)O)ccc12 (stereo not drawn)	5.7%	-19%	.	.	.
CCC(=O)O[C@@]1(C(=O)CCl)[C@@H](C)C[C@@H]2[C@H]3CCC4=CC(=O)C=C[C@@]4(C)[C@]3(F)[C@@H](O)C[C@@]21C	-0.3%[25.7 µM]	-18%[25.6 µM]	i	i	1e-09
O=C(CON1C(=O)c2ccccc2C1=O)c1ccccc1	6.8%[11.5 µM]	1%[11.4 µM]	i	i	1e-09
O=C(CSc1nnc2scc(-c3ccccc3)n12)NCC1CCCO1 (stereo not drawn)	1.5%	-2%	i	i	1e-09

Of the compounds above, these have a COOH group:
SMILES	AID923	TSHR ag	Resorufin autofl	A488 fluor	A647 fluor
O=C(O)c1cccc(NC(=O)c2ccccc2)c1	2.4%	?	.	.	.
O=C(O)CSCCc1ccccc1	-0.2%[11.5 µM]	1%[11.4 µM]	i	i	1e-09

The list continues.
SMILES	AID923	TSHR ag	Resorufin autofl	A488 fluor	A647 fluor
O=S(=O)(NCCc1ccccn1)c1ccc(F)c(F)c1	0.7%	-7%	i	i	1e-09
COc1nc(OC)nc(N2CCC(C(=O)NCc3cccs3)CC2)n1	1.2%	6%	i	i	1.3e-09
CCCCCn1c(SCCc2ccccc2)nc2c1c(=O)[nH]c(=O)n2C	-1.0%	28%	i	i	1.2e-08
CC(=O)c1sc(Nc2nc3ccc(F)cc3s2)nc1C	8.5%	-7%[11.4 µM]	i	i	3.9e-08
CC(C)OC(=O)CSc1nnc(-c2ccc(Cl)cc2Cl)o1	-0.1%	5%	i	i	2e-09
CC(C)=C1C2C=CC1C1C(=O)N(c3ccc4c(c3)OCO4)C(=O)C21 (stereo not drawn)	2.7%	2.5µM*	.	.	.
CCCCNC(=O)CCC(=O)Nc1ncc(-c2ccc(C)cc2)n1C	-2.8%	-2%	i	i	1e-09
COc1ccc(CN2CCCCC2C)c(C)c1C (stereo not drawn)	-0.6%	28%	.	.	.
O=C(COC(=O)c1cccc(NC(=O)c2ccco2)c1)c1ccc(Br)cc1	0.0%	?	.	.	.
CCOCCCN(C(=O)c1ccco1)C(C(=O)NC1CCCC1)c1cccc(OC)c1OC (stereo not drawn)	-0.2%	17%	i	i	2.4e-08
NCC[C@H]1CCC[C@H](CCN)N1	0.5%	2%	i	i	1e-09
Cn1cnnc1SCC(=O)c1c[nH]c2ccccc12	0.2%	-2%	i	i	1e-09
COc1ccc(-c2nn3c(-c4ccc(F)cc4)nnc3s2)cc1	3.8%	?	i	i	1.8e-08
CN[C@@H](CC(C)C)C(=O)N[C@@H]1C(=O)N[C@H](CC(N)=O)C(=O)N[C@H]2C(=O)N[C@H]3C(=O)N[C@H](C(=O)N[C@H](C(=O)O)c4cc(O)cc(O)c4-c4cc3ccc4O)[C@H](O)c3ccc(c(Cl)c3)Oc3cc2cc(c3O[C@@H]2O[C@@H](CO)[C@@H](O)[C@@H](O)[C@H]2O[C@H]2C[C@](C)(N)[C@H](O)[C@H](C)O2)Oc2ccc(cc2Cl)[C@@H]1O	-4.0%	?	i	i	3.9e-08
O=C(CSCc1ccc(Br)cc1)N1CCOCC1	1.0%	-14%	i	i	1.1e-08
COCCCN1C(=O)C(=O)/C(=C(/O)c2ccccc2)C1c1ccc(N(C)C)cc1 (stereo not drawn)	1.2%	-3%	i	i	9.9e-09
